MARV entry inh: Marburg virus entry inhibition | Marburg virus pseudotyped entry inhibition, cell reporter; control for the full effect not named in the record; about a third of the inactives were read at about 46 µM | Potency, µM (top dose mostly 37.8 µM), inactives show at the highest dose activity change, negative = inhibition, actives largely listed as inhibitors | 300,000 compounds, 1.8% hits | AID 540276; active = well fitted inhibition curve with a large enough effect; inconclusive = small, poorly fitted or top-dose-only effect, or effect the other way; inactive = flat fitted curve, though single readings scatter; tested in HEK293 cells; about a fifth of its hits are not listed in these tables; further: on the % scale 0 is the no-effect control and ±100 the full control effect; luciferase read-out
Cruzain inh noDet: cruzain (T. cruzi) inhibition without detergent | purified cruzain, Z-FR-AMC fluorescence, no detergent | AID 1476 | 200,000 compounds, 2.3% hits | Potency, µM, for the others: max response, negative = inhibition, hits mostly inhibitors | P25779; active means well fitted curve in the direction sought with a large enough effect; inconclusive means small, poorly fitted or top-dose-only effect, or another doubt; inactive means no such curve, though single readings can be large; an effect the other way counts as inactive or inconclusive;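 further: plate controls were enzyme without inhibitor for no effect and buffer without enzyme for full effect; nearly all actives have a fitted effect of over 40% in size; top concentration of the series not given in the record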
Target sequence (P25779 123-467 limits assumed): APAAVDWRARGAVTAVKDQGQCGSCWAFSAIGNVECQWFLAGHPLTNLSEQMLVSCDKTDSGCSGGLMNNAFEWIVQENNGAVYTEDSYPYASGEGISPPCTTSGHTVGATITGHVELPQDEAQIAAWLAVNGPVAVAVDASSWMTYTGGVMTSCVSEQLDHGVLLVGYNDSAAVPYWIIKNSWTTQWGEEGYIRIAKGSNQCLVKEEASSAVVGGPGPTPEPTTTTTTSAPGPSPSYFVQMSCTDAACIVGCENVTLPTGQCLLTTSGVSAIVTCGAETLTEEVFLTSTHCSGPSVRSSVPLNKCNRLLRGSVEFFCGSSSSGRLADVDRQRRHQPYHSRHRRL
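Detergent-free condition (0.00005% Triton X-100) in acetate buffer pH 5.5 with DTT. 1.5 nM enzyme and compound were pre-mixed 15 min, then 2 uM Z-FR-AMC substrate added; reaction progress from fluorescence change between first and third reads (60 s).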
LASV entry inh: Lassa virus entry inhibition; Lassa virus pseudotype entry inhibition, cell reporter; control for the full effect not named in the record; Potency, µM (top dose mostly 37.9 µM), for inactives: at the highest dose activity change, negative = inhibition, usual class: inhibitors; 300,000 compounds, 1.2% hits; active means well fitted inhibition curve with a large enough effect; inconclusive means small, poorly fitted or top-dose-only effect, or effect the other way; inactive means flat fitted curve, though single readings scatter; tested in HEK293 cells; further: on the % scale 0 is the no-effect control and ±100 the full control effect; nearly all actives have a fitted effect of over 50% in size; luciferase read-out
SARS PLpro yeast: blocks SARS-CoV papain-like protease in a yeast assay. AID 485353. Potency, µM (titrated, usually from 32.9 µM), for the others: at the top dose activity, positive = growth rescue. 330,000 compounds, 0.19% hits. S. cerevisiae expressing SARS-CoV PLpro, growth rescue; control for the full effect not named in the record; further: 0% is about no effect; nearly all actives have a fitted effect of over 55% in size; growth read by luminescence after 48 h
NS1 function inh: influenza NS1 inhibition; 270,000 compounds, 0.4% hits; Potency, µM (series often up to 46.1 µM), inactives show at the top dose activity, positive = more growth; S. cerevisiae slowed by influenza A NS1, growth recovery by OD600; further: actives are rising curves; nearly all actives have a fitted effect of over 50% in size
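Read-out: OD600 growth recovery of NS1-expressing budding yeast. Cells grown overnight at 30C in -URA glucose medium, washed, resuspended and diluted 1:100 in 2% galactose assay medium, pH 6.0. Same strain lacking NS1 served as positive control.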
2A StopGo: lowers the luciferase signal of an FMDV 2A StopGo reporter. human cells with a luciferase reporter of 2A StopGo recoding; control for the full effect not named in the record. Potency, µM (top dose mostly 57.9 µM), inactives show at the highest dose signal change, negative = less light. 410,000 compounds, 1.2% hits. AID 1159524; active = well fitted falling curve with a large enough effect; inconclusive = small, poorly fitted or top-dose-only effect; inactive = no such curve, though single readings can be large or run the other way; tested in HEK293T cells; further: on the % scale 0 is the no-effect control and ±100 the full control effect; nearly all actives have a fitted effect of over 45% in size; luciferase light after 4 h
Cruzain inh Det: inhibitors of Trypanosoma cruzi cruzain with detergent; P25779; purified cruzain, Z-FR-AMC fluorescence, 0.01% Triton; Potency, µM, without a hit: max response, negative = inhibition, actives largely listed as inhibitors; 200,000 compounds, 0.43% hits; AID 1478; active means well fitted curve in the direction sought with a large enough effect; inconclusive means small, poorly fitted or top-dose-only effect, or another doubt; inactive means no such curve, though single readings can be large; an effect the other way counts as inactive or inconclusive;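 further: plate controls were neutral wells for no effect and buffer without enzyme for full effect; nearly all actives have a fitted effect of over 40% in size; top concentration of the series not given in the record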
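Read-out: AMC fluorescence (360 nm excitation, 450 nm emission), four reads over 2 min, first-to-third difference used. Conditions: cruzain 1.5 nM, Z-FR-AMC 2 uM, pH 5.5 acetate, 5 mM DTT, 0.01% Triton X-100.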
RE007 growth inh: less growth of the S. pombe RE007 Vpr strain; S. pombe RE007 Vpr strain, BacTiter-Glo ATP luminescence, 24 h; control for the full effect not named in the record; Potency, µM (series often up to 92.2 µM), for inactives: at the highest dose activity change, negative = less growth; 360,000 compounds, 0.21% hits; AID 651644; active = well fitted falling curve with a large enough effect; inconclusive = small, poorly fitted or top-dose-only effect; inactive = no such curve, though single readings can be large or run the other way;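 further: on the % scale 0 is the no-effect control and ±100 the full control effect; nearly all actives have a fitted effect of over 50% in size; the assay follows cell death caused by Vpr and the record does not say whether a fall means rescue or toxicity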
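Fission yeast RE007 carrying one integrated HIV-1 vpr copy, seeded at OD 0.01 in PMG+AL medium with 23 nL pinned compound. Grown 24 h at 30 degrees; viability read by BacTiter-Glo luminescence after 5 min.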
Numbers without * were called inactive; ? = inconclusive; · = not tested or not shown; & = joins results of further samples; [ ] = dose if it differs, or a comment. Unless noted, the call rests on the fitted dose curve; in most records, active means well fitted rising curve with a large enough effect; inconclusive means small, poorly fitted or top-dose-only effect; inactive means no such curve, though single readings can be large or run the other way. Potency means the concentration at half of the fitted maximal effect. This is a random part of the collection; overall some 4.5% were active at least once.

SMILES | MARV entry inh | Cruzain inh noDet | LASV entry inh | SARS PLpro yeast | NS1 function inh | 2A StopGo | Cruzain inh Det | RE007 growth inh
COc1ccc(C(=O)N2CCCC(Nc3ccc(C(C)C)cc3)C2)c(OC)n1 (centres undefined) | -1.7% | · | 2.0% | -10.4% | -33.0% | -11.7% | · | 0.6%
Cc1c(C(N)=O)sc2ncn(CC(=O)N(C)C3CCCCC3)c(=O)c12 | 2.2%[46.1 µM] | · | 7.1% | -0.2% | 9.4% | -12.4% | · | -2.5%
CCN(C(=O)CCc1nc(-c2ccc(C)cc2)no1)c1cc(C)ccc1C | -13.7%[46.1 µM] | 20.6% | 1.4%[46.1 µM] | · | · | -18.2% | -8.5% | ·
COc1cc(Cl)c(C)cc1Nc1ncccn1 | -0.2%[46.1 µM] | · | ? | -7.4% | -0.4% | 19.0% | · | -16.0%
C/C(=N\O)c1ccc2[nH]ccc2c1 | ? | 4.8% | -5.8% | -0.3% | 15.8% | 46.3%[activator] | 5.4% | -5.7%
N#C/C(=C/c1ccc(-c2ccc(S(=O)(=O)N3CCOCC3)cc2)o1)C(=O)NC1CC1 | 8.6%[46.1 µM] | · | -8.0%[46.1 µM] | · | · | -13.3% | · | -10.5%
O=[N+]([O-])c1ccc(N/N=C/c2cn(-c3ccccc3)nc2-c2ccccc2)cc1 | ? | ? | -17.2% | 3.7% | ? | 3.1% | 3.7% | 9.9%
COC(=O)c1oc2ccccc2c1NC(=O)c1ccccc1O | -9.1%[14.2 µM] | · | 4.7% | -1.7% | -4.2% | ? | · | -4.1%
Cc1ccccc1C1C(C#N)=C2N=C(N)c3c(sc4c3CCCCC4)N2C2=C1C(=O)CCC2 (centres undefined) | ? | ? | ? | 3.2% | 2.3% | -22.7% | 1.6% | 1.9%
O=C1C2C(C(=O)N1Cc1ccco1)C1C=CC2C12CC2 (centres undefined) | 10.3% | 2.2% | 3.3% | 4.3% | 1.4% | -15.4% | 4.9% | -7.9%
CC1CCCN(CC(O)COc2ccc(Cl)cc2)C1 (centres undefined) | -16.4% | 9.4% | -1.7% | 4.0% | -21.3% | · | -1.6% | -13.0%
O=C(NC1CCCC1)c1ccc(COc2ccccc2Br)o1 | · | · | · | ? | -91.6% | -25.5% | · | -1.9%
COc1ccc(CN2CCN(C(=O)Cc3ccccc3)CC2)cc1Br | · | · | · | -2.7% | -16.9% | -4.4% | · | -11.2%
Cc1cccc(NCc2ccccc2O)c1C | 11.2% | -0.3% | -10.3% | -17.6% | -5.7% | 8.1% | 2.2% | -24.7%
CC(=O)Nc1ccc(/C=N/N2CCCCC2)cc1 | 13.0%[46.1 µM] | · | 0.7% | -0.8% | · | 34.2%[activator] | · | -7.4%
COc1ccccc1NC(=O)CSc1nc(-c2ccc(C)cc2)nc2c1Cc1c(CO)cnc(C)c1O2 | · | 15.5% | 20.0%[46.1 µM] | · | · | -27.0% | 0.0% | ·
O=C(Nc1ccc2c(c1)OCO2)c1ccc2c(c1)OCO2 | ? | -16.6% | ? | -16.7% | 1.1% | -24.2% | 0.1% | -17.7%
COc1ccc(S(=O)(=O)N(CC(=O)NCCSc2ccc(C)cc2)c2ccc(C)cc2)cc1 | ? | 0.0% | -2.9%[46.1 µM] | · | · | -0.6% | 0.8% | ·
COc1cc(CNCCN2CCOCC2)ccc1OCc1c(Cl)cccc1Cl | ? | 17.6% | ? | 7.0% | 6.2% | · | -2.9% | ·
CC(C)CCNC(=O)[C@H](Cc1ccccc1)N1Cc2ccccc2C1=O | · | · | · | -0.4% | -4.4% | 21.0% | · | -5.4%
Cc1ccc(Cn2c(SCc3cccnc3)nc3c2c(=O)n(C)c(=O)n3C)cc1 | -27.0% | -0.2% | -26.5% | 4.4% | -4.2% | · | 1.5% | -8.3%
O=C(CSc1n[nH]c(-c2ccncc2)n1)Nc1ccc(Cl)c(Cl)c1 | ? | · | -17.4%[46.1 µM] | -2.2% | -6.2% | -15.4% | · | -11.1%
O=C(NCC1CCCO1)c1ccc(NC(=O)c2ccc([N+](=O)[O-])cc2)cc1 (centres undefined) | · | · | · | 6.4% | 10.5% | -10.5% | · | 0.0%
Cc1cc(Oc2ccc(Cl)cc2)nc(-c2ccccn2)n1 | ? | · | ? | -6.4% | -69.3% | -21.0% | · | -10.9%
Cc1ccc(CNC(=O)CCCn2c(=O)c3ccccc3n(Cc3ccccc3Cl)c2=O)cc1 | ? | 4.2% | 3.8%[46.1 µM] | · | · | -5.7% | 3.2% | ·
N#C/C(=C\c1ccncc1)C(=O)Nc1ccc(C(=O)O)cc1 | · | · | · | -0.3% | 4.5% | -14.7% | · | 6.1%
O=C(CSc1nc2ccc([N+](=O)[O-])cc2[nH]1)c1ccc(Cl)cc1 | -5.6% | 0.3% | -0.4% | -2.3% | 9.7% | ? | -5.8% | -3.5%
Cc1ccc2[nH]c(C)c(CCNCc3cccnc3)c2c1 | · | · | · | -2.6% | -10.5% | -7.6% | · | 5.6%
Cc1ccc(NC(=O)c2cc3c(=O)oc4ccccc4c3s2)nc1 | -24.4% | -4.0% | 8.5% | 15.6% | 6.0% | -8.8% | -1.4% | 13.1%
O=S(=O)(c1ccc(N2CCC(c3ccc(Cl)cc3)=N2)cc1)N(CCO)CCO | -7.7% | ? | -11.6% | 1.7% | 8.3% | -11.5% | 4.3% | -8.0%
OC[C@H]1O[C@@H](n2cnc3c(NC4CCCC4)ncnc32)[C@H](O)[C@@H]1O | ? | -4.6% | 6.5%&-2.1% | 0.4% | 4.5% | -13.7%&6.9% | 0.8% | 3.1%
CCn1c(CSCc2ccc(C)cc2)n[nH]c1=S | · | · | · | 2.2% | -7.7% | -10.6% | · | 13.7%

Reformatted: results already given.
| Compound | MARV entry inh | Cruzain inh noDet | LASV entry inh | SARS PLpro yeast | NS1 function inh | 2A StopGo | Cruzain inh Det | RE007 growth inh |
| --- | --- | --- | --- | --- | --- | --- | --- | --- |
| COc1cc(CNCCN2CCOCC2)ccc1OCc1c(Cl)cccc1Cl | ? | 17.6% | ? | 7.0% | 6.2% | · | -2.9% | · |
| CC(C)CCNC(=O)[C@H](Cc1ccccc1)N1Cc2ccccc2C1=O | · | · | · | -0.4% | -4.4% | 21.0% | · | -5.4% |
| Cc1ccc(Cn2c(SCc3cccnc3)nc3c2c(=O)n(C)c(=O)n3C)cc1 | -27.0% | -0.2% | -26.5% | 4.4% | -4.2% | · | 1.5% | -8.3% |
| O=C(CSc1n[nH]c(-c2ccncc2)n1)Nc1ccc(Cl)c(Cl)c1 | ? | · | -17.4%[46.1 µM] | -2.2% | -6.2% | -15.4% | · | -11.1% |
| O=C(NCC1CCCO1)c1ccc(NC(=O)c2ccc([N+](=O)[O-])cc2)cc1 (centres undefined) | · | · | · | 6.4% | 10.5% | -10.5% | · | 0.0% |
| Cc1cc(Oc2ccc(Cl)cc2)nc(-c2ccccn2)n1 | ? | · | ? | -6.4% | -69.3% | -21.0% | · | -10.9% |
| Cc1ccc(CNC(=O)CCCn2c(=O)c3ccccc3n(Cc3ccccc3Cl)c2=O)cc1 | ? | 4.2% | 3.8%[46.1 µM] | · | · | -5.7% | 3.2% | · |
| N#C/C(=C\c1ccncc1)C(=O)Nc1ccc(C(=O)O)cc1 | · | · | · | -0.3% | 4.5% | -14.7% | · | 6.1% |
| O=C(CSc1nc2ccc([N+](=O)[O-])cc2[nH]1)c1ccc(Cl)cc1 | -5.6% | 0.3% | -0.4% | -2.3% | 9.7% | ? | -5.8% | -3.5% |
| Cc1ccc2[nH]c(C)c(CCNCc3cccnc3)c2c1 | · | · | · | -2.6% | -10.5% | -7.6% | · | 5.6% |
| Cc1ccc(NC(=O)c2cc3c(=O)oc4ccccc4c3s2)nc1 | -24.4% | -4.0% | 8.5% | 15.6% | 6.0% | -8.8% | -1.4% | 13.1% |
| O=S(=O)(c1ccc(N2CCC(c3ccc(Cl)cc3)=N2)cc1)N(CCO)CCO | -7.7% | ? | -11.6% | 1.7% | 8.3% | -11.5% | 4.3% | -8.0% |

Screening data as filed in PubChem.
